H5N1 antiviral: MDCK cell protection from H5N1 avian flu. inhibition, % at 50 µM. hit rate 0.07% among 96,000. cytopathic effect, luminescence, 72 h; stronger effect = higher value; no value below 0 was filed and about half of the inactive calls have no number; reference of the scale not given here; in the data active means inhibition above about 25%
Starred values were filed as active, the others as inactive; i = inactive. A portion of the library; rates above refer to the full screens.

no.	Structure	H5N1 antiviral
1	CCOC(=O)C(O)(NC(=O)c1cccnc1)C(F)(F)F (stereo unspecified)	0.2
2	CC1(C)Oc2ccc3ccc(=O)oc3c2C(N2CCCCC2)C1O (stereo unspecified)	0.3
3	O=C(NC1(C(F)(F)F)Oc2ccccc2O1)N1CCCC1	i
4	O=[N+]([O-])c1ccc(N2CCCC2)cc1NC(c1ccccc1)c1ccccc1	2.0
5	COc1ccccc1OCC(=O)Nc1nnc(-c2ccco2)s1	2.8
6	CCN(CC)CCN=Cc1c(O)n(CCc2ccccc2)c(=O)[nH]c1=O	1.7
7	CN1CCCCCC1=Nc1ccccc1C#N	i
8	CN(C)S(=O)(=O)Oc1ccsc1C(=O)Nc1ccccc1Cl	0.2
9	CCCC(=O)Nc1nc(C)c(-c2csc(Nc3cc(OC)ccc3OC)n2)s1	i
10	COc1ccc(Cn2c(N)c(C(=O)NCc3ccco3)c3nc4ccccc4nc32)cc1OC	i
11	Cc1cc(C(=O)OCC(=O)N2CCc3ccccc32)c(C)o1	i
12	O=C(Nc1scc(-c2cccs2)c1C(=O)O)c1cccs1	0.0
13	CCOC(=O)Nc1ccc(NS(=O)(=O)c2ccc(C)cc2)cc1	1.3
14	COc1ccc(C(=S)N2CCOCC2)cc1OC(=O)c1cc([N+](=O)[O-])c(C)c([N+](=O)[O-])c1	0.4
15	COc1cccc(NC(=O)CSc2nc3c(c(=O)n2C)SC(C)C3)c1 (stereo unspecified)	1.8
16	C=CCNC(=O)c1csc(-c2ccccc2)n1	i
17	COCCCn1c(SCC(=O)Nc2cccc(C(=O)OC)c2)nnc1-c1ccncc1	0.4
18	Cc1ccc(Cl)cc1N1CCN(S(=O)(=O)c2cccc(S(=O)(=O)N3CCCC3)c2)CC1	1.3
19	CCSC1=C(C#N)C(=O)n2c1cc1c2CCCC1	0.5
20	Cc1ccc2cc(-c3noc(C4CCCO4)n3)c(=O)[nH]c2c1 (stereo unspecified)	i
21	CCN1C(=O)C(Cc2nc3ccccc3c(=O)n2C)c2ccccc21 (stereo unspecified)	i
22	CC(=NC1CCN(Cc2ccccc2)CC1)c1c(O)n(C)c(=O)n(C)c1=O	i
23	CN(C)CCOCCOc1ccccc1-c1ccccc1	i
24	CC(C)CC(c1nnnn1CC1CCCO1)N1CCN(Cc2ccc3c(c2)OCO3)CC1 (stereo unspecified)	1.3
25	C=CCn1c(N)cc(=O)nc1SCC(=O)N1CCN(c2ccc(F)cc2)CC1	i
26	COC(=O)c1[nH]c2ccc(F)cc2c1NC(=O)CCN1CCN(C(=O)c2ccco2)CC1	0.6
27	O=C(OCCN1CCOCC1)c1ccc(OCCN2CCOCC2)cc1	0.3
28	CC(=O)Nc1ccc(OC(=O)C(CCS(C)(=O)=O)N2C(=O)c3ccccc3C2=O)cc1 (stereo unspecified)	0.2
29	CC1(C)C(c2cccs2)=[N+]([O-])C2(CCCCC/C2=N\O)N1O (stereo unspecified)	i
30	CCOC(=O)CSc1nc2cc(OC)ccc2cc1C#N	i
31	CCOc1ccccc1NC(=O)CSc1nc(N)c(C#N)cc1C#N	0.1
32	O=S(=O)(c1ccccc1)N1CCC(O)(CSc2ccc(Cl)cc2)CC1	2.8
33	OC(CNCc1ccccc1)(c1ccc(F)cc1)c1ccc(F)cc1	i
34	Fc1ccc(-n2c(Cc3ccccc3)nnc2SCc2nc(-c3cccs3)no2)cc1	0.5
35	CCN(CC)CCNC(=O)COc1ccc(Cl)cc1Cl	i
36	Cc1ccccc1-c1nc(CN2CCC(C(=O)NCCCN3CCCC3)CC2)c(C)o1	i
37	Cn1c(=O)c2cc(S(=O)(=O)NCCC(=O)NCc3ccccc3Cl)ccc2n(C)c1=O	0.9
38	CCOc1ccc(CCNS(=O)(=O)c2c(C)n[nH]c2C)cc1OCC	i
39	CCOC(=O)c1c(CN2CCN(C)CC2)oc2ccc(O)cc12	0.5
40	O=C(CSc1nnc(Cc2csc(Nc3cccc(Cl)c3)n2)o1)N1CCc2ccccc21	i
41	Cc1c(NC(=O)c2cc3nc(-c4ccccc4)cc(C)n3n2)c(=O)n(-c2ccccc2)n1C	1.6
42	COc1ccccc1NC(=O)NCCN1C(=O)C2C3C=CC(C3)C2C1=O (stereo unspecified)	2.2
43	Cc1ccc(-c2csc(NC(=O)CSc3ncn(-c4ccccc4)n3)n2)cc1	0.7
44	Cc1ccc(C2=NC(C)(C)N=C2SCC(=O)Nc2ccc(Cl)cc2)cc1	i
45	COc1ccc(N2CCN(C(=O)CSc3nnc(C)c(=O)[nH]3)CC2)cc1	0.1
46	c1ccc(CN2CCN(Cc3ccc4c(c3)OCCO4)CC2)cc1	0.3
47	Cc1ccc(NC(=O)CN2C(=O)N/C(=C/c3ccc(C)o3)C2=O)cc1	1.1
48	COC(=O)c1sc2nc3c(cc2c1N)COC(C)(C)C3	0.3
49	COc1ccccc1NC(=O)C1CC(=O)N(c2ccc(F)cc2)C1 (stereo unspecified)	0.1
50	O=S(=O)(NCCc1ccncc1)c1ccc(S(=O)(=O)N2CCCCCC2)cc1	6.2
51	COC(=O)CCC(=O)NNC(=O)c1cccc(Cl)c1	0.0
52	CCCCCOc1ccc(OC(=O)c2ccncc2)cc1	i
53	CCOc1ccc(C(=O)NCCCN2CCCC2=O)cc1	i
54	CCCn1c(N)c(C(c2ccc(C(=O)OC)cc2)N2CCN(c3ccccc3)CC2)c(=O)[nH]c1=O (stereo unspecified)	0.2
55	COC(=O)c1ccc(/C=N\n2c(C)nnc2C)cc1	0.2
56	Cc1ccc(CNC(=O)c2cc3c(=O)n(C)c4ccccc4c3n2C)cc1	1.0
57	CCn1c2ccc(Cl)cc2c2nc3ccccc3nc21	i
58	CCCn1nnc(NC(=O)c2ccc(-c3cccc(Cl)c3)o2)n1	0.8
59	CC(C)Nc1nc(C#N)nc(NC(C)C)n1	1.4
60	N#CC12CCCCC1CC1CCCCC1(C#N)N2CCO (stereo unspecified)	1.5

(cont.)
no.	Structure	H5N1 antiviral
61	O=C(CC1C(=O)N(c2ccccc2)C(=O)N1C1CCCCC1)Nc1ccccc1 (stereo unspecified)	i
62	N#Cc1cc2c(nc1SCC(=O)N1CCOCC1)CCCCC2	1.3
63	COc1ccccc1NC(=O)Cn1cnc2c(cnn2-c2ccccc2)c1=O	i
64	CC(OC1=CC(=O)CCC1)C(=O)c1ccccc1 (stereo unspecified)	1.7
65	CCOC(=O)C1=C(O)C(=O)N(c2ccc(S(N)(=O)=O)cc2)C1c1ccc(Cl)cc1 (stereo unspecified)	i
66	O=C(NC1CCCCC1)N(CCN1CCOCC1)Cc1cc2cc3c(cc2[nH]c1=O)OCCO3	3.0
67	CN(C)c1oc(-c2ccc(OCc3ccccc3)cc2)nc1C#N	i
68	Cc1c(N=C2NC(=O)C(CC(=O)Nc3ccccc3)S2)c(=O)n(-c2ccccc2)n1C (stereo unspecified)	0.6
69	COc1ccc(S(=O)(=O)N2CCC(C(=O)NCC(c3cccs3)N(C)C)CC2)cc1 (stereo unspecified)	i
70	COc1cccc(COc2nc3c(c(=O)n(C)c(=O)n3C)n2C)c1	i
71	Cc1ccc(-n2nnnc2SCC(=O)N2CCc3ccccc3C2)cc1	i
72	Cc1ccc(-n2c(CSc3nc(C)cc(C)n3)nnc2SCC(=O)N2CCCC2)cc1	0.2
73	N#CCCNc1ccc(OCCC#N)cc1	0.2
74	CCOC(=O)N1CCN(C(=O)C2CCC(=O)N2C(C)C)CC1 (stereo unspecified)	i
75	Cc1noc(C)c1CSc1nnc(C)c(=O)[nH]1	i
76	CCOC(=O)c1ccc(S(=O)(=O)NC2CCCCCCC2)n1C	1.3
77	c1ccc(CN2CN=C(Nc3nc4ccccc4s3)NC2)cc1	0.2
78	Cn1nc(OCc2ccccc2)ccc1=O	i
79	COc1cccc(C(=O)N(Cc2nc(-c3ccc(C)cc3)no2)C(C)C)c1	i
80	O=C(CN1C(=O)CC(c2ccco2)Sc2ccccc21)Nc1ccccc1F (stereo unspecified)	0.9
81	O=C(NCc1n[nH]c(=S)n1-c1ccc(F)cc1)c1ccco1	i
82	CN(C)C=Nc1ccc2nn(-c3ccccc3)nc2c1	i
83	COc1ccc(N(CC(=O)NCCC2=CCCCC2)S(C)(=O)=O)cc1OC	i
84	COc1ccc(-c2nc3ccccc3c(=O)n2-c2nccs2)cc1	i
85	COc1cc(S(=O)(=O)N2CCCCCC2)c(OC)cc1Br	i
86	O=[n+]1c2c(n([O-])c3ccccc31)CCC2	0.1
87	CC1Cc2cc(/C(O)=C3\C(=O)C(=O)N(CCN(C)C)C3c3ccccc3F)ccc2O1 (stereo unspecified)	i
88	O=c1oc2cc(OCc3c(F)cccc3Cl)ccc2cc1-c1ccccn1	i
89	CCOC(=O)N1CCN(S(=O)(=O)c2cc(Br)cnc2N)CC1	i
90	COc1ccc(C(c2sc3nc(C)nn3c2O)N2CCN(Cc3ccccc3)CC2)cc1OC (stereo unspecified)	0.5
91	Cc1cc(C(=O)Nc2ccc(S(=O)(=O)Nc3nccs3)cc2)c(C)o1	i
92	CCc1ccc(-c2nc(CN3CCC(C(=O)NCc4ccccc4OC)CC3)c(C)o2)cc1	1.1
93	COc1cccc(CNC(=O)C2CCC(CNS(=O)(=O)c3cccc4nsnc34)CC2)c1 (stereo unspecified)	i
94	O=C(Cc1ccc(F)cc1)Nc1c2c(nn1-c1cccc(Cl)c1)CS(=O)C2 (stereo unspecified)	0.1
95	Cc1cc(=O)[nH]c(Nc2c(C)n(C)n(-c3ccccc3)c2=O)n1	0.3
96	CC(C)(C)c1ccc(CSc2nnc(-c3ccccn3)n2Cc2ccco2)cc1	i
97	Cc1cccc(N2CCN(S(=O)(=O)c3ccc4c(c3)n(C)c(=O)c(=O)n4C)CC2C)c1 (stereo unspecified)	0.3
98	Cn1cccc1C(=S)N1CCOCC1	i
99	Cc1ccc2cc(C=C(C#N)C#N)c(N3CCCCC3)nc2c1	6.5
100	Cc1nc2ccc(NC(=O)c3ccc(S(=O)(=O)N4CCOCC4)cc3)cc2s1	i
101	CC(=O)c1ccc(OC(NC(=O)c2ccco2)C(Cl)(Cl)Cl)cc1 (stereo unspecified)	i
102	CCOC(=O)CN=C1CC(C)(C)CC2=C1Sc1ncnc(N(C)C)c1N2	0.1
103	CCC(=O)Nc1ccc(C(=O)CSc2nnc(-c3ccc(O)cc3)n2CC2CCCO2)cc1 (stereo unspecified)	i
104	Nc1c(C(=O)Nc2ccccc2)sc2nc3c(c(-c4ccco4)c12)CCCC3	i
105	COc1ccc2nc(NC(=O)c3ccc(Br)s3)sc2c1	i
106	COC(=O)c1scc(C)c1N/N=C(\C)c1ccc(F)cc1	17.1
107	Cc1ccccc1C(=O)N/N=C/c1ccc(OCC(=O)N2CCCCC2)cc1	i
108	CCCn1c(NCc2cccc(OC)c2OC)nc2ccccc21	i
109	CN1CC=C(c2c[nH]c3ccccc23)CC1	0.5
110	CSC1CCCCC1(O)CSc1nc2c(cc1C#N)CCCC2 (stereo unspecified)	2.2
111	O=C(Nc1ccc(-n2cnnn2)cc1)C1CCCCC1	0.2
112	Cc1ccc(-c2nn(CC(=O)NCCN3CCOCC3)c(=O)c3ccccc23)cc1	0.8
113	O=C(N/N=C\c1ccc(Sc2ccccn2)o1)c1cccc(Br)c1	i
114	CC(=O)Nc1ccccc1-c1nc2ccc(C(=O)N3CCN(c4cccc(C)c4)C(C)C3)cc2[nH]c1=O (stereo unspecified)	2.7
115	CCn1c(CSc2nc3ccccc3s2)nnc1SCC(=O)c1ccc2c(c1)OCCO2	i
116	CCOCCOC(=O)C(C)Sc1n[nH]c(=O)[nH]c1=O (stereo unspecified)	i
117	CCCC(c1nnnn1CC(=O)OCC)N(Cc1cc2c(C)cc(C)cc2[nH]c1=O)C1CCCC1 (stereo unspecified)	i
118	CC12COC3(C(=O)Nc4nccs4)CC1CCC32C (stereo unspecified)	2.2
119	Cn1c(=O)c(C#N)c(-c2ccccc2)n2cnnc12	1.4
120	O=C(NCCc1ccccc1)c1cccnc1	0.1

(further entries)
no.	Structure	H5N1 antiviral
121	CCS(=O)(=O)N1CCC(C(=O)Nc2cc(Cl)ccc2O)CC1	2.8
122	COc1cc(C=C(C(C)=O)C(C)=O)ccc1O	1.6
123	COc1cc(N2C(=O)CSC23C(=O)Nc2ccccc23)cc(OC)c1OC (stereo unspecified)	0.3
124	COc1ccc(C)cc1S(=O)(=O)N(C)CC(=O)Nc1ccc2c(c1)OCCO2	i
125	O=C(c1ccc(-c2ccccc2)cc1)N1CCC(C(=O)N2CCCC2)CC1	i
126	CN(C)c1ccc(/C=c2\sc3nc(-c4ccccc4)nn3c2=O)cc1	i
127	Cc1ccc(C(C)C)c(OCc2nc(-c3nonc3N)no2)c1	1.2
128	N#Cc1c(-c2ccncc2)c2c([nH]c1=S)CCCC2	i
129	CC1(C)CC(=O)C=C(NCCCNC2CCCCC2)C1	i
130	CN(C)c1cc(N)c2ccccc2n1 (tested in a mixture with another compound)	0.3
131	CC(C)(C)NC(=S)Nc1ccc(Nc2ccccc2)cc1	0.1
132	CNC(=O)NC(=O)C(C)OC(=O)c1c(C)noc1C (stereo unspecified)	i
133	Cc1ccc(S(=O)(=O)NCCCNS(C)(=O)=O)cc1	i

High-throughput results as filed in PubChem BioAssay.
